# Mtb H37Rv: M. tuberculosis H37Rv growth inhibitors, H37Rv strain (AID 1626); M. tuberculosis H37Rv growth inhibition; higher % means a stronger effect; one-dose inhibition, % at 10 µM; IC50 in µM for titrated hits; 220,000 tested, 0.95% active;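 active = confirmed in a dose series; inconclusive = inhibition above 80% but not taken into the dose series; inactive = below 80% or under 30% at every dose of the series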;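 also: bacteria incubated seven days before Alamar blue readout; 0% = bacteria only wells and 100% = bacteria with antibiotic wells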
# Arbovirus inh: arbovirus infection inhibition | inhibition, % at 10 µM | 200,000 tested, 0.37% active | AID 1251 | arbovirus infection cell-based antiviral screen;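 active = inhibition from about 30%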;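 also: bluetongue infection of BSR cells; cell survival read as ATP light after 72 h; 0% = infected wells without compound and 100% = uninfected wells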
# RecA splice inh: Mtb RecA intein splicing inhibition; 290,000 tested, 0.75% active; inhibition, %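 (about 9 µM by stock and volumes)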; cell-free RecA intein splicing, fluorescence; in the data active = inhibition above about 30%; inconclusive = no clear call, values can overlap the other calls;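 also: 0% = vehicle wells and 100% = reference inhibitor control wells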
# Target sequence (P9WHJ3 whole entry, looked up, canonical isoform): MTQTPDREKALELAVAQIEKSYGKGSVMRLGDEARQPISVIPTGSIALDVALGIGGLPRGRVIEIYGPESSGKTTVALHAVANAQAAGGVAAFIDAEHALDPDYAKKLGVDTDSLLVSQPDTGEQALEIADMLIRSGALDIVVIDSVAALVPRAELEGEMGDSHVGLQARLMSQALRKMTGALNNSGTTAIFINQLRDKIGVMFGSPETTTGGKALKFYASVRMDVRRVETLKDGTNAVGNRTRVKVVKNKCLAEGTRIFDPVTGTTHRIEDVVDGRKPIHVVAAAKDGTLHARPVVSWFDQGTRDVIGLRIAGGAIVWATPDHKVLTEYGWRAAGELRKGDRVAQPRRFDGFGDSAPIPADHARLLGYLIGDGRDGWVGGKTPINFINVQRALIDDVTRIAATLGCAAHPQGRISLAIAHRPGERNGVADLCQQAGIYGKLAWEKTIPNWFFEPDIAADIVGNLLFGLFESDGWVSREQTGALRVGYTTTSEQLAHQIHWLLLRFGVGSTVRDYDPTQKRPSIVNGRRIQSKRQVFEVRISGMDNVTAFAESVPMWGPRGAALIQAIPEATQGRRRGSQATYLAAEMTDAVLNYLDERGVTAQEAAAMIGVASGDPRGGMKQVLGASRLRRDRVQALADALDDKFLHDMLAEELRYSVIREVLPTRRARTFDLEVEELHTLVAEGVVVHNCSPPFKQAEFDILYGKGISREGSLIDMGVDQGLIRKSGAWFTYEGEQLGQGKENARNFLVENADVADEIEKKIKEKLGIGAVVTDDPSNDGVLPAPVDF
# Mtb betalactam: beta-lactam sensitization of Mtb H37Rv; M. tuberculosis H37Rv growth with meropenem, percent inhibition; hits of this screen are not shown here; inhibition, % at 25 µM; 330,000 tested, 0.27% active;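 active = about 74% or more and at least 40 points above the plate without the antibiotic, then above 30% in a dose series; inconclusive = first-round hits that could not be retested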;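 also: growth measured after seven days incubation then overnight dye step; 0% = bacteria only wells and 100% = bacteria with antibiotic; twin plates without the antibiotic show which effects depend on it; some results filed as inactive read as strong as hits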
# YopH PTP inh: YopH (Yersinia) phosphatase inhibition; inhibition, %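 (about 10 µM by stock and volumes)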; 140,000 tested, 0.16% active; fluorescence Ex485/Em525;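 active = inhibition of 50% or more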;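 also: controls were vehicle for no effect and minimum signal wells for full effect; inactives centre near -20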
# Arbovirus inh repeat: further read-out of Arbovirus inh, marked with its call; inhibition, %; measured here: 10K subset replicate screen; many hits read low in the repeat;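 first of two repeat runs on a subset; 0% = infected and 100% = uninfected wells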
# Starred values were filed as active, the others as inactive; u = inconclusive; x = not tested or not shown. This is a subset; rates above refer to the full screens.
SMILES,Mtb H37Rv,Arbovirus inh,RecA splice inh,Mtb betalactam,YopH PTP inh,others
COC(=O)C(NS(=O)(=O)c1ccc(F)cc1)c1ccccc1 (stereo unspecified),59%,4,0.7,25,x,
CCN(CC)S(=O)(=O)c1ccc(C(=O)N2CCN(CCN3C(=O)c4cccc5cccc(c45)C3=O)CC2)cc1,-1%,-9,-0.4,4,x,
Cn1c2c(c(=O)n(C)c1=O)C(c1ccccc1F)C(C#N)=C(N)O2 (stereo unspecified),5%,2,1.7,-7,x,
Cc1cccc(N2CCN(Cc3nc(-c4ccc(F)cc4F)oc3C)CC2)n1,10%,12,2.4,-3,x,
O=C(/C=C/c1ccccc1)c1cc(Br)ccc(=O)c1O,-4%,-5,0.6,98,-12,
O=S(=O)(Cc1ccccc1Cl)N1CCCC1,4%,4,-2.4,-13,x,
COc1cccc(NC(=O)NCc2ccc(F)cc2)c1,0%,-7,-1.9,-9,x,
COC(=O)Nc1[nH]ncc1[N+](=O)[O-],-2%,3,0.0,-1,x,
COC(=O)C1=C(C)N(c2ccc(S(N)(=O)=O)cc2)C(=O)C1,-5%,-2,1.1,-13,-13,
Cc1cccc(N2CCN(C(=O)C3COc4ccccc4O3)CC2)c1C (stereo unspecified),16%,36*,0.0,6,x,
Cc1ccnc(N2CCCC(C(=O)NCc3cccs3)C2)n1 (stereo unspecified),-7%,-3,0.4,-4,-22,
O=C(COC(=O)c1ccc(F)c(S(=O)(=O)N2CCCCC2)c1)NCc1ccc(F)cc1,9%,5,-3.1,1,x,
COc1ccc(-c2nnn(Cc3ccccc3F)n2)cc1,4%,-16,-0.9,1,-26,
Cc1ccc(NC(=O)C2=CC(c3cccs3)=NS(=O)(=O)N2C)cc1,x,x,0.7,-1,x,
CCc1c(C)nc(SCC(=O)Nc2ccc3c(c2)OCCO3)[nH]c1=O,16%,-1,3.4,4,x,
O=C(Oc1ccc2ccc(O)cc2c1)C1CCCCC1,>100µM*,-6,-0.3,-2,x,
CCC1CCCCN1S(=O)(=O)c1ccc(C(=O)Nc2nnc(-c3cccs3)o2)cc1 (stereo unspecified),x,-6,x,2,-26,
CCOc1ccc(OCc2cccc(C(=O)N3CCOCC3)c2)cc1,x,11,-4.6,1,2,
CCc1nn(CCCC(=O)Nc2ccc(C)c(C)c2)c(=O)c2cc3occc3n12,x,x,2.7,-8,x,
CSc1cccc(CN2CCN(Cc3ccc(F)c(F)c3)C(CCO)C2)c1 (stereo unspecified),-7%,2,-1.4,2,x,

# Next section; the last four above are carried over.
SMILES,Mtb H37Rv,Arbovirus inh,RecA splice inh,Mtb betalactam,YopH PTP inh,others
CCC1CCCCN1S(=O)(=O)c1ccc(C(=O)Nc2nnc(-c3cccs3)o2)cc1 (stereo unspecified),x,-6,x,2,-26,
CCOc1ccc(OCc2cccc(C(=O)N3CCOCC3)c2)cc1,x,11,-4.6,1,2,
CCc1nn(CCCC(=O)Nc2ccc(C)c(C)c2)c(=O)c2cc3occc3n12,x,x,2.7,-8,x,
CSc1cccc(CN2CCN(Cc3ccc(F)c(F)c3)C(CCO)C2)c1 (stereo unspecified),-7%,2,-1.4,2,x,
CCOc1cc(N2CCOCC2)c(OCC)cc1NC(=O)COC(=O)COc1cc(C)cc(C)c1,x,x,-2.1,1,x,
CCCn1c(NCCO)nc2ccccc21,-3%,0,5.4,10,-22,
O=C(Nc1ccccc1Cl)C1C2CCC3C(CCC21)C3(Cl)Cl (stereo unspecified),-2%,-6,-0.4,2,-17,
Cn1c(/C(C#N)=C(\O)c2ccc(S(=O)(=O)N3CCCCC3)cc2)nc2ccccc21,x,-12,x,1,-41,
Cc1onc(-c2ccccc2)c1C(=O)Nc1nc2c(s1)C(=O)CC(C)(C)C2,-6%,2,-2.7,2,-25,
Cc1ccc(S(=O)(=O)c2nc(Nc3ccccc3C#N)sc2Cl)cc1,-11%,2,0.1,4,-14,
Cc1nn(-c2ccccc2)c(Cl)c1C(=O)Nc1ccccc1,0%,1,3.5,-11,-51,
COc1ccc(CN2C(=O)CCC2(C)C(=O)NC2CCCC2)c(OC)c1 (stereo unspecified),x,0,1.7,-5,-29,Arbovirus inh repeat=3
Cc1ccc(-c2nnn(CC(=O)N(c3ccccc3)C(C(=O)NCC3CCCO3)c3ccc(Cl)cc3)n2)cc1 (stereo unspecified),2%,-1,0.6,4,-42,
NC(=O)c1ccc(NC(=O)COC(=O)CCCN2C(=O)c3cccc4cccc(c34)C2=O)cc1,6%,-6,-0.2,-2,-30,
CC(=O)c1ccc(OCC(O)CN2CCN(CC(O)COc3ccc(C(C)=O)cc3)CC2)cc1 (stereo unspecified),-8%,-9,-2.0,-6,-7,
O=C(NCN1CCN(c2ccccc2)CC1)c1cnccn1,x,x,-1.8,2,x,
O=C(Nc1ccccc1)c1ccccc1CC[N+](=O)[O-],-2%,8,1.6,-1,-36,
O=C(O)CCC(=O)N1CCC(C(=O)c2cccc(Cl)c2)CC1,-6%,9,0.6,-7,-41,
CCc1cccc(OCC(=O)Nc2ccc(S(=O)(=O)N3CCCC3)cc2)c1,x,x,3.1,3,x,
O=C1Nc2ccccc2C12Nc1ccccc1-c1nc3ccccc3n12 (stereo unspecified),14%,11,9.7,10,-15,
O=c1cc(N2CCOCC2)[nH]c(=O)n1-c1ccc(Br)cc1,4%,1,-2.8,-2,-40,
COc1cc(C2OCC3C(c4cc(OC)c(OC)c(OC)c4)OCC23)cc(OC)c1OC (stereo unspecified),-7%,x,-3.8,-1,x,
COc1cc(/C=C/C(=O)OCC(=O)N2CC(=O)Nc3ccccc32)ccc1O,-3%,x,1.2,-9,x,
COC(=O)c1sc(NC(=O)CSc2nnnn2-c2ccc(C)cc2C)nc1C,-10%,-8,-0.4,3,-44,

# Structures listed so far that contain a cyano group, in the order listed:
SMILES,Mtb H37Rv,Arbovirus inh,RecA splice inh,Mtb betalactam,YopH PTP inh,others
Cn1c2c(c(=O)n(C)c1=O)C(c1ccccc1F)C(C#N)=C(N)O2 (stereo unspecified),5%,2,1.7,-7,x,
Cn1c(/C(C#N)=C(\O)c2ccc(S(=O)(=O)N3CCCCC3)cc2)nc2ccccc21,x,-12,x,1,-41,
Cc1ccc(S(=O)(=O)c2nc(Nc3ccccc3C#N)sc2Cl)cc1,-11%,2,0.1,4,-14,

# Continued.
SMILES,Mtb H37Rv,Arbovirus inh,RecA splice inh,Mtb betalactam,YopH PTP inh,others
CC(C1CC1)N(Cc1ccccc1)C(=O)NC(=O)c1ccc(F)cc1 (stereo unspecified),-1%,-1,0.7,3,x,
O=C(Cc1nn[nH]n1)Nc1ccc(F)cc1F,-2%,x,x,-9,x,
CCSC1(SCC)N=C(N)C2(C#N)C(c3ccccc3)NC(C)=C(C)C12C#N (stereo unspecified),-4%,-1,-1.3,x,-48,
Cc1ccc(O)c(NC(=S)NC(=O)/C=C/c2ccco2)c1,3%,3,-1.8,29,x,
Cc1ccc2cc(/C=N/NC(=O)[C@@H]3CCCN3)c(Cl)nc2c1,-15%,x,0.4,-7,x,
O=C(Nc1ccccn1)c1cccc(S(=O)(=O)N2CCCC2)c1,x,x,-1.2,-14,x,
Cc1ccc(C(=O)Nc2cccc3cccnc23)cc1C,x,x,4.0,72,x,
O=C1OCCN1C(=O)[C@H]1[C@H](c2ccc([N+](=O)[O-])cc2)C(c2cccc(Cl)c2)=NN1c1ccccc1,0%,-6,0.0,42,15,
CC(=O)Nc1ccc(C(=O)Nc2nnc(CCc3ccccc3)s2)cc1,x,x,-1.8,-3,x,
Cc1cccc(CNS(=O)(=O)c2ccc(-c3cnc(C4CC4)o3)cc2)c1,x,x,-3.0,-1,x,
CC(=O)Nc1ccc(NC(=O)c2ccc(NC(=O)c3ccccc3)cc2)cc1,x,x,-1.3,0,x,
COc1ccc([C@@]2(O)c3c(ccc(CC=C(C)C)c3O)NC(=O)[C@@H]2OC)cc1,-6%,x,4.0,-18,x,
CCCCN1C(=O)/C(=C2/Sc3ccc(OC)cc3N2CC)SC1=S,x,x,-7.0,-4,x,
O=C(CSc1ncn[nH]1)Nc1c(F)cc(F)cc1Br,x,-1,0.1,-11,13,
CCOc1c2ccc(C(=O)NCc3ccco3)cc2nn1CCOC,-14%,9,-3.1,-4,-5,
COc1ccc(-c2cc(C3CCN(C(=O)OC(C)(C)C)CC3)[nH]n2)cc1,3%,7,2.0,98,x,
O=C(C(Cc1ccccc1)NS(=O)(=O)c1cccc2nsnc12)N1CCC2(CC1)OCCO2 (stereo unspecified),1%,5,1.5,2,-32,
COc1ccc(Cl)cc1NC(=O)CS(=O)(=O)c1cccc2nsnc12,-6%,2,-1.3,10,-44,
O=C(Cn1nc(C(=O)O)c2ccccc2c1=O)NCCC1=CCCCC1,-4%,5,0.3,4,-39,
CC(C)NC1CS(=O)(=O)CC1O (stereo unspecified),-10%,6,3.4,0,-5,
CCOC(=O)C1CCCN(C(=O)/C=C/c2ccccc2[N+](=O)[O-])C1 (stereo unspecified),-6%,2,1.1,-4,-24,
CCOC(=O)CN1C(=O)N[C@@H](c2cccs2)C(C(C)=O)=C1C,12%,x,1.2,-1,x,
O=C(CCCCn1c(=O)[nH]c2ccccc2c1=O)NCCc1c[nH]c2ccccc12,x,9,0.6,1,-19,Arbovirus inh repeat=-3
CC(=O)OCc1cc2cccc(C)c2[nH]c1=O,4%,5,-2.3,-7,-57,
Cc1ccccc1NC(=O)c1cc([N+](=O)[O-])ccc1NCCN1C(=O)CCC1=O,3%,-4,3.1,2,x,
COc1ccc(OC)c(/C(O)=C/C(=O)C(=O)Nc2ccccc2OC)c1,-10%,2,-0.9,1,-39,
O=C1CC[C@@H](OCc2ccccc2)CCN1CC[C@H](Sc1ccccc1)c1ccccc1,x,x,22,-5,x,
CCOC(=O)c1oc2nc(CC(C)C)c3c(c2c1N)CCCC3,7%,x,x,47,x,
Cc1cnn(Cc2cccnc2)c1N,x,x,2.2,-4,x,
CC1CCc2c(C(=O)Nc3cccc(-c4nn[nH]n4)c3)csc2C1 (stereo unspecified),x,x,1.4,u,x,
Cc1ccc(NC(=O)CSc2nc(N)cc(=O)[nH]2)cc1Cl,66%,1,-4.0,41,x,
O=C(c1ccccc1Br)N1CCCC(c2nc(-c3cccs3)no2)C1 (stereo unspecified),15%,1,0.1,0,x,
Cn1c(=O)c2c(nc(N3CCCCCC3)n2CC(O)COc2ccc(Cl)cc2)n(C)c1=O (stereo unspecified),5%,0,1.1,4,-30,
Nc1nc(-c2ccc([N+](=O)[O-])cc2)cs1,50%,3,1.3,7,-28,

# Sorted by number of heavy atoms (high to low): 3 of the compounds above
SMILES,Mtb H37Rv,Arbovirus inh,RecA splice inh,Mtb betalactam,YopH PTP inh,others
Cc1ccccc1NC(=O)c1cc([N+](=O)[O-])ccc1NCCN1C(=O)CCC1=O,3%,-4,3.1,2,x,
Nc1nc(-c2ccc([N+](=O)[O-])cc2)cs1,50%,3,1.3,7,-28,
Cc1cnn(Cc2cccnc2)c1N,x,x,2.2,-4,x,

# Of the compounds above, six contain a nitro group on carbon.
SMILES,Mtb H37Rv,Arbovirus inh,RecA splice inh,Mtb betalactam,YopH PTP inh,others
COC(=O)Nc1[nH]ncc1[N+](=O)[O-],-2%,3,0.0,-1,x,
O=C(Nc1ccccc1)c1ccccc1CC[N+](=O)[O-],-2%,8,1.6,-1,-36,
O=C1OCCN1C(=O)[C@H]1[C@H](c2ccc([N+](=O)[O-])cc2)C(c2cccc(Cl)c2)=NN1c1ccccc1,0%,-6,0.0,42,15,
CCOC(=O)C1CCCN(C(=O)/C=C/c2ccccc2[N+](=O)[O-])C1 (stereo unspecified),-6%,2,1.1,-4,-24,
Cc1ccccc1NC(=O)c1cc([N+](=O)[O-])ccc1NCCN1C(=O)CCC1=O,3%,-4,3.1,2,x,
Nc1nc(-c2ccc([N+](=O)[O-])cc2)cs1,50%,3,1.3,7,-28,

# Screening data: PubChem BioAssay, several laboratories
